Sa growth inh = blocks Staphylococcus aureus growth. S. aureus RN4220 growth, OD600, 20 h, 42 °C; hits give low values. relative growth, % (no concentration beside the values). 170,000 tested, 0.53% active. AID 720641;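 active = growth at 42 °C up to 50% and 20 or more points under that at 30 °C, or under 10% at both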;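 also: 300 nL library stock went into each well; scaled to the means of positive and negative controls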
HCMV NEC inh = cytomegalovirus nuclear egress complex inhibition. HTRF UL50-UL53 interaction, normalized percent inhibition. 190,000 tested, 0.15% active. inhibition, % (test concentration not listed);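 active = both replicates at 50% or more, plus weaker picks with an unusually low signal ratio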;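 also: stock transfer was 100 nL into about 20 µL; 0% = negative control wells and 100% = wells with untagged competitor protein; inactives centre near -12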
GIV-Gai inh = GIV-Galpha-i interaction inhibition; P08753; Galpha-i3/FITC-GIV peptide fluorescence polarization, 90 min; hits give low values; scaled: aluminum fluoride 0%, vehicle 100%; percent of control (FP), % (concentration not given with the values); 210,000 tested, 0.42% active; AID 1224905;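 active = replicate mean at 85% of control or lower, very high polarization wells dropped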;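 also: wells of about 15 µL received 100 nL stock; the first replicate is given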
Target sequence (P08753 whole entry, looked up): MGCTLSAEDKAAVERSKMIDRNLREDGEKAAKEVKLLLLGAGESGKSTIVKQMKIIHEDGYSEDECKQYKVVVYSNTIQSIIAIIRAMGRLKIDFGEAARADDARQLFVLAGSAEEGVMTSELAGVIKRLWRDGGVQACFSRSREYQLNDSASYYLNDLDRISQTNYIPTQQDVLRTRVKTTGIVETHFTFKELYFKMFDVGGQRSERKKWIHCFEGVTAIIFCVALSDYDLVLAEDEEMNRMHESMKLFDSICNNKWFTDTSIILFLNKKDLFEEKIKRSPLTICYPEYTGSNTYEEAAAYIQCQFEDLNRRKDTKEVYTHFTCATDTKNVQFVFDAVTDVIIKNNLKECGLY
Sa growth inh second temp = recorded beside Sa growth inh, whose call it bears; relative growth, %; measured here: growth at 30 °C;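 optical density after 20 h as mean of two plates; 100% = untreated growth and lower means inhibition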
Active calls of the source: *; nt = no result given; & = joins results of further samples.

SMILES | Sa growth inh | Sa growth inh second temp | HCMV NEC inh | GIV-Gai inh
CC(C)(C)n1nnnc1C(c1cccs1)N1CCCc2ccccc21 (configuration not stated) | 122.8 | 90.6 | -8.3 | 103.4
CCn1cc(-c2nc(-c3cccc(Br)c3)no2)c(=O)c2cc(F)c(N3CCOCC3)cc21 | nt | nt | -38.7 | 106.0
CCOC(=O)c1sc2nc(CC(=O)OC)nc(NCC(=O)OC)c2c1C | 93.8 | 90.9 | -11.2 | 99.6
CC1CCC(NC(=O)C2(C)Cn3c(nc4ccccc43)C(=O)N2CCN2CCOCC2)CC1 (configuration not stated) | nt | nt | -18.8 | 98.6
CCOC(=O)c1c(C)oc(NC(=O)c2nn(Cc3ccccc3)c(=O)c3ccccc23)c1C#N | 69.2 | 112.1 | -1.5 | nt
CCOC(=O)c1cc(/C(C)=N/OC(=O)c2ccccc2)on1 | 97.7 | 84.6 | -32.4 | 101.3
COC(=O)c1ccccc1NC(=O)c1ccc(COc2cc(C)cc(C)c2)o1 | 90.5 | 86.0 | -29.8 | 104.1
CC(C)(C)NCCOc1ccc2ccccc2c1 | 104.4 | 94.7 | -5.5 | nt
COc1cccc(-c2nn3c(-c4cc(C(C)C)[nH]n4)nnc3s2)c1OC | nt | nt | -7.5 | 105.9
CSc1ccc(CCNC(=O)c2cc3n(n2)CCCN(Cc2ccc(C)cc2)C3=O)cc1 | 82.3 | 90.0 | nt | 99.6
CCN(CC)S(=O)(=O)c1ccc(-c2ccc(C3N=C(N)Nc4nc5ccccc5n43)o2)cc1 (configuration not stated) | 91.3 | 82.2 | -19.2 | nt
CCN(Cc1ccccc1)C(=O)Cn1c(SCc2ccc(F)cc2)nc2cccnc21 | 102.0 | 86.5 | nt | 101.3
CN(C)c1ccc(Nc2ncnc3ccc(I)cc23)cc1 | 88.2 | 83.5 | -4.0 | 105.9
CCN(CC)CCNC(=O)C1CCN(C(=O)c2cnn(-c3ccccc3)c2-n2cccc2)CC1 | 97.2 | 84.9 | -21.4 | 98.6
CC(O)c1nc2ccccc2n1C/C=C/c1ccccc1 (configuration not stated) | nt | nt | -4.7&-14.1 | 101.3
CN(C)S(=O)(=O)c1ccc(-c2csc(-c3cccnc3)n2)cc1 | 103.1 | 91.1 | -33.1 | 106.4
CCCCc1nn2c(=O)cc(COC(=O)c3ccc(NC(=O)c4ccccc4C)cc3)nc2s1 | 103.2 | 94.6 | nt | 103.3
Cc1ccc(-c2nc(-c3ccccn3)no2)c(Cl)c1 | 90.4 | 53.1 | 0.3 | 104.4
COc1ccc(C2SCC(C(=O)NC3CCCCCC3)N2C(=O)Nc2ccc(C)c(C)c2)cc1 (configuration not stated) | 93.1 | 81.1 | nt | 98.8
CCOc1cc(-c2ccccc2)nc2ccc(C(=O)Nc3cc(OC)ccc3OC)cc12 | nt | nt | -21.8 | 105.5
CC(=NCCc1ccccc1)C1=C(O)C(c2ccccc2)OC1=O (configuration not stated) | 123.9 | 84.9 | -33.5 | nt
O=C(Cn1c(=O)n(CC(=O)NC2CCCC2)c(=O)c2ccccc21)Nc1ccc(F)cc1 | 108.9 | 88.3 | 3.7 | 108.2
Cc1ccc(C(=O)CSc2nc(C)cc(=O)[nH]2)cc1 | 115.9 | 82.8 | -21.8 | nt
CCCCn1c(=O)[nH]c2nc3cc(N(C)C)ccc3nc2c1=O | 96.1 | 97.2 | -52.7 | 105.2
Cc1oc2ncn(C)c(=O)c2c1C(=O)O | 67.3 | 87.5 | -32.2 | nt
COc1ccc(C)cc1CSc1nnc(-c2cccs2)n1C1CC1 | 93.7 | 84.5 | -0.1 | nt
C=C1C(C(=O)N2CCN(c3ccccc3)CC2)C1C(=O)N1CCN(c2ccccc2)CC1 (configuration not stated) | 96.6 | 84.8 | -3.2 | nt
O=C(Cc1ccc(-n2c(=O)c3ccccc3n(CC(=O)NCc3ccco3)c2=O)cc1)NCC1CCCO1 (configuration not stated) | 87.2 | 97.3 | 0.8 | 112.0
O=C(NCC1CCN(Cc2ccccc2F)CC1)Nc1ccc(F)c(Cl)c1 | 97.4 | 87.2 | 0.1 | 97.7
Cc1ccc(OCC(=O)Nc2cccc(-c3nc4ccccc4c(=O)o3)c2)cc1 | 87.4 | 89.2 | -7.2 | 101.3
Cc1ccc(C)c(NC(=O)c2cnc(N3CCCC3)nc2C)c1 | 100.8 | 91.7 | nt | 105.9
Cc1ccc(S(=O)(=O)N2CCN(Cc3nc4cccnc4n3-c3ccccc3)CC2)cc1Cl | nt | nt | -8.0 | 103.2
Cc1c(C(=O)NCCCc2ccccc2)oc2c1-c1[nH]ncc1CC2 | 99.9 | 90.5 | 8.4 | 107.7
Cc1cccc(OCC(=O)NCCc2nc3ccccc3[nH]2)c1C | 107.0 | 84.2 | -32.0 | 100.5
CCOCC(=O)N1CCC(Cc2ccccc2)CC1 | 101.1 | 98.3 | -6.5 | 103.8
Fc1ccc(-c2nnc(Cl)c3ccccc23)cc1F | 99.5 | 97.5 | 20.8 | nt
O=C(NCc1ccc(Cl)cc1)c1n[nH]nc1Nc1cccc(Cl)c1 | nt | nt | 0.6 | 105.2
Cc1ccc2nc3ccc(NCc4ccccc4)nn3c(=O)c2c1 | 103.8 | 94.0 | nt | 100.1
Cc1ccc(OCC(=O)OCC(=O)Nc2ncc(Cl)cc2Cl)cc1C | 88.1 | 87.7 | -13.9 | nt
COc1ccc(CC(=O)Nc2nnc3n2CCS3)cc1OC | 83.6 | 94.0 | nt | 101.2
CC1CC2(C)Oc3ccccc3C3OCC1CC32 (configuration not stated) | 102.4 | 104.4 | -8.1 | 105.0
COc1ccc(CC(=O)N2CCc3ccccc32)cc1OC | 84.0 | 95.1 | -29.3 | nt
CCCCCn1c(CNC(=O)c2ccc(F)cc2)nc2ccccc21 | 97.6 | 83.7 | -8.8 | 104.0
Cn1c(=O)c2c(SCC(=O)NCc3ccco3)nc(-c3cccc(F)c3)nc2n(C)c1=O | 100.4 | 91.5 | nt | 93.1
CCCc1cc(=O)n2[nH]c(NC(=O)c3ccccc3Cl)nc2n1 | 97.7 | 92.7 | 14.3 | 99.1
CCCCOc1ccc(C(=O)Nc2cc(C)nn2-c2ncnc3c2cnn3-c2ccccc2)cc1 | nt | nt | -7.8 | 103.6
O=c1oc(-c2cccs2)nc2sc3c(c12)CCCCC3 | nt | nt | -20.8 | 107.2
COc1ccccc1N1CCN(CCCNC(=O)Nc2c[nH]c3ccc(C)cc3c2=O)CC1 | nt | nt | -4.2 | 115.7
COc1ccc(CCNC(=O)CCCn2c(=O)c3ccccc3n(CC(=O)Nc3c(C)cc(C)cc3C)c2=O)cc1OC | 105.1 | 93.5 | -25.4 | 100.5
CC(NC(=O)/C=C/c1ccc2c(c1)OCO2)c1ccccc1 (configuration not stated) | 106.9 | 92.8 | nt | 104.5
Cc1sc(NC(=O)C(Cc2ccccc2)Cc2ccccc2)c(C#N)c1C | 104.0 | 87.4 | nt | 103.2
CC(O)c1nc2ccccc2s1 (configuration not stated) | 85.4 | 88.6 | -10.7 | nt
O=C(Cn1c(=O)c2cccn2c2ccc(F)cc21)N1CCN(c2ccc(F)cc2)CC1 | 84.5 | 90.1 | 9.1 | 97.8
CC1CC(=O)N(C)c2ccccc2S1 (configuration not stated) | 109.8 | 94.9 | -3.5 | 107.9
O=C(CN1C(=O)COc2ccc(S(=O)(=O)N3CCOCC3)cc21)N1CCN(c2ccc(Cl)cc2)CC1 | 101.9 | 86.1 | -25.8 | 101.9
CCOC(=O)c1oc2ccc3nc(N(C)C)sc3c2c1C | 109.8 | 87.4 | nt | 103.3
Cc1ccc(-n2cnc3cc(C(=O)NCCC4=CCCCC4)ccc32)c(C)c1 | 112.9 | 87.7 | nt | 97.0
CC(C)c1ccc(NC(=O)CSc2nc(=O)n(Cc3cccnc3)c3c2CCC3)cc1 | 97.1 | 59.0 | nt | 108.3
CCn1nccc1NC(=O)COc1ccccc1Cl | nt | nt | -19.4 | 103.9
O=C1c2ccccc2C(=O)N1CCCCSc1nnc2ccccn12 | 87.8 | 89.3 | -37.0 | nt
Remaining list, next part:
SMILES | Sa growth inh | Sa growth inh second temp | HCMV NEC inh | GIV-Gai inh
Cc1csc(-c2ccc(-c3csnn3)cc2)n1 | 98.5 | 61.8 | -26.6 | 100.7
O=C(Nc1cccc(-c2nc3ccccc3[nH]2)c1)C1CCCO1 (configuration not stated) | 97.4 | 88.5 | 5.6 | 105.0
O=c1c2c3c(sc2nnn1CCCCOc1ccc(Cl)cc1)CCCC3 | 94.1 | 86.1 | 3.3 | 104.4
COc1nc2nonc2nc1Nc1ccc(C)cc1 | 85.9 | 64.7 | -127.8 | 106.1
CCC(Sc1nc2ccccc2c2nc(CCc3c(C)n[nH]c3C)nn12)C(=O)Nc1ccc(OC)cc1 (configuration not stated) | 94.0 | 73.7 | nt | 103.2
CCN(Cc1cc2ccccc2[nH]c1=O)C(=O)c1cccc(Cl)c1 | nt | nt | -2.5 | 98.4
COCCn1c(=NC(=O)CSCC(=O)N2CCc3ccccc32)sc2cc(OC)ccc21 | 83.6 | 81.5 | -0.3 | 101.1
COc1ccc(/C=C2/C(=O)CNC2=O)cc1 | 90.2 | 87.8 | -23.1 | 94.1
CC1=C(C(=O)OC2CCCC2)C(c2cc3c(cc2Cl)OCO3)C2=C(CCCC2=O)N1 (configuration not stated) | 84.1 | 70.3 | -19.1 | 100.0
Cc1ccc(S(=O)(=O)CCc2nc3ccccc3n2CC(=O)O)cc1 | 104.5 | 87.8 | -12.8 | 102.0
COc1ccc(C(=O)Nc2ccc(N3CCN(S(C)(=O)=O)CC3)cc2)cc1OC | 101.1 | 100.0 | -25.2 | 105.0
COc1ccc(-n2nc3ccc(NC(=O)c4ccc(C#N)cc4F)cc3n2)cc1Cl | 103.2 | 90.8 | -15.2 | 108.0
CCc1cccc(NC(=O)CCc2nc(-c3ccc(C)cc3)no2)c1 | 107.7 | 95.3 | 3.3 | 108.5
CC1CCCN(S(=O)(=O)c2cccc(-c3cn4cccnc4n3)c2)C1 (configuration not stated) | 77.5 | 78.1 | -7.5 | 97.2
O=S(=O)(NNC1=NCCCCC1)c1ccccc1 | 103.1 | 94.5 | 7.5 | nt
CCOC(=O)C1=NN(c2ccc(C)cc2)C2C(=O)N(c3ccc(Cl)cc3)C(=O)C12 (configuration not stated) | 99.8 | 74.9 | -17.4 | 107.4
CNC(=S)N(Cc1ccc(S(N)(=O)=O)cc1)CC(F)(F)F | 88.2 | 81.8 | -16.9 | nt
CNc1nn2nnnc2c2ccccc12 | 103.3 | 85.8 | -18.5 | 104.2
O=S1(=O)CC(O)C(N2CCN(Cc3ccccc3)CC2)C1 (configuration not stated) | 70.1 | 92.7 | -18.7 | nt
O=C(COc1ccccc1F)Nc1cccc(OCc2cc(=O)n3c4c(sc3n2)CCCC4)c1 | nt | nt | -2.1 | 105.8

Reformatted: entries from further up
CC1CCCN(S(=O)(=O)c2cccc(-c3cn4cccnc4n3)c2)C1 (configuration not stated)
  Sa growth inh: 77.5	Sa growth inh second temp: 78.1	HCMV NEC inh: -7.5	GIV-Gai inh: 97.2

O=S(=O)(NNC1=NCCCCC1)c1ccccc1
  Sa growth inh: 103.1	Sa growth inh second temp: 94.5	HCMV NEC inh: 7.5	GIV-Gai inh: nt

CCOC(=O)C1=NN(c2ccc(C)cc2)C2C(=O)N(c3ccc(Cl)cc3)C(=O)C12 (configuration not stated)
  Sa growth inh: 99.8	Sa growth inh second temp: 74.9	HCMV NEC inh: -17.4	GIV-Gai inh: 107.4

CNC(=S)N(Cc1ccc(S(N)(=O)=O)cc1)CC(F)(F)F
  Sa growth inh: 88.2	Sa growth inh second temp: 81.8	HCMV NEC inh: -16.9	GIV-Gai inh: nt

Next section
SMILES | Sa growth inh | Sa growth inh second temp | HCMV NEC inh | GIV-Gai inh
COc1ccc(Br)c(C(=O)Nc2cc3c(cc2N2CCCC2)n(C)c(=O)c(=O)n3C)c1 | 105.7 | 83.2 | nt | 101.6
CON(C)c1nc(OCCNC(=O)COc2ccc(Cl)cc2C)nc(N(C)C)n1 | nt | nt | -8.0 | 104.4
CCCCn1c(N)c(S(=O)(=O)c2ccccc2)c2nc3ccccc3nc21 | 89.8 | 72.3 | -37.3 | nt
C=CCNC(=O)c1cc(C2CC2)on1 | 99.6 | 89.7 | -5.1 | 98.8
COc1ccc(NC(=O)/C=C2\SC(=O)NC2=O)cc1 | 79.9 | 78.7 | -39.6 | 99.0
Cc1cccc(C)c1NC(=O)C(C)Sc1n[nH]c(-c2ccncc2)n1 (configuration not stated) | 102.1 | 90.0 | -36.5 | 99.6

Some of the entries above in another layout.
Cc1ccc(-n2cnc3cc(C(=O)NCCC4=CCCCC4)ccc32)c(C)c1
  Sa growth inh = 112.9	Sa growth inh second temp = 87.7	HCMV NEC inh = nt	GIV-Gai inh = 97.0
CC(C)c1ccc(NC(=O)CSc2nc(=O)n(Cc3cccnc3)c3c2CCC3)cc1
  Sa growth inh = 97.1	Sa growth inh second temp = 59.0	HCMV NEC inh = nt	GIV-Gai inh = 108.3
CCn1nccc1NC(=O)COc1ccccc1Cl
  Sa growth inh = nt	Sa growth inh second temp = nt	HCMV NEC inh = -19.4	GIV-Gai inh = 103.9
O=C1c2ccccc2C(=O)N1CCCCSc1nnc2ccccn12
  Sa growth inh = 87.8	Sa growth inh second temp = 89.3	HCMV NEC inh = -37.0	GIV-Gai inh = nt

Screening results as filed in PubChem.
